# MLL AF4-AF9 inh = MLL-AF4/AF9 protein interaction inhibition; inhibition, % at 10 µM; P42568; AlphaScreen, biotin-AF4 peptide binding to FLAG-AF9; 350,000 tested, 0.47% active;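 active means every replicate reaching a set inhibition limit, whatever the replicate mean, cut at about 25% in these data; inconclusive means mean inhibition reaches that limit but some replicates miss it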;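 further: 0% = plate neutral control median and 100% = total signal loss; the record names both 10 and 1 µM as test concentration; the first replicate is given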
# Target sequence (P42568 whole entry, looked up): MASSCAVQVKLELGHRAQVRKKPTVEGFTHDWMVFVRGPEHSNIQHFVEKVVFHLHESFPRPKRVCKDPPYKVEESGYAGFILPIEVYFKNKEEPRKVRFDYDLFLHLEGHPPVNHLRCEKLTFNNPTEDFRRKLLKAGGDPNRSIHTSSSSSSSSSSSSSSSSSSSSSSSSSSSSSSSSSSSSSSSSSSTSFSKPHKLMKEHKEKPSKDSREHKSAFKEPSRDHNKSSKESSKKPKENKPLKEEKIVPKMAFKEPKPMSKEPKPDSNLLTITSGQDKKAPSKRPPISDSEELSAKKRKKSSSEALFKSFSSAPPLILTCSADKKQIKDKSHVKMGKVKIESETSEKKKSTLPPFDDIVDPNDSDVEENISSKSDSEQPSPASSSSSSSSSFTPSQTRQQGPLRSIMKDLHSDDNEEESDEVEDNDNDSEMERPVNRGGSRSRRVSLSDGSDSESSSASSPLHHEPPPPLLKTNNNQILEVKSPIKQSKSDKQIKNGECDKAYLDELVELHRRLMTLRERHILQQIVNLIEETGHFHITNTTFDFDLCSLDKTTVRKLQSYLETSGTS
# Ecoli rRNA inh = inhibitors of bacterial rRNA selective over humanized ribosomes. 350,000 tested, 1.6% active. AID 720706. E. coli WT GFP vs humanized-ribosome RFP mutants, fluorescence, 24 h; hits give low values; DMSO median 0, no signal -100. GFP signal change (wild-type ribosome), % (concentration not given with the values);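 active means significant combined selectivity score with lowered wild-type GFP, culture density cut under 30%, mutant RFP and density less affected; inactive means any of these conditions unmet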; further: one replicate is shown; some compounds called inactive have numbers as strong as hits
# E coli growth = inhibitors of Escherichia coli growth | OD600 absorbance (no concentration beside the values) | OD600, 23 h; hits give low values | 330,000 tested, 0.21% active;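 active means OD600 absorbance below the run mean of sample wells minus 3.6 SD, in any replicate, cut at about 0.56 in these data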;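 further: stock transfer was 300 nL into about 60 µL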
# FGF22 binding = shifts melting point of recombinant human FGF22. Q9HCT0. 340,000 tested, 1.5% active. calls only at 9.99 µM. recombinant FGF22 thermal shift, SYPRO orange fluorescence; percent of sucrose octasulfate shift, DMSO zero;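 active means melting point raised past a set limit in the mean and every replicate; inconclusive means no clear call; three in four hits are not shown here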
# Target sequence (Q9HCT0 whole entry, looked up): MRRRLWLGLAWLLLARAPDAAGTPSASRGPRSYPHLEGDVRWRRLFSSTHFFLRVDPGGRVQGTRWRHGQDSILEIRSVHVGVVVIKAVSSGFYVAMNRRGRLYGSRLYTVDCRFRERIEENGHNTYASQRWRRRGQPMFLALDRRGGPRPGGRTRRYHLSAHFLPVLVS
# HNF4A DNA FP = change in binding of human HNF4 alpha to DNA; P41235; activity change, % at 10 µM; 360,000 tested, 0.3% active; HNF4a-FITC DNA binding, fluorescence polarization, 1 h; in the data active means activity change above about 30%, passing the limit was not always enough;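 further: controls were the assay level and a saturating level of protein; the project sought stronger binding though the title names inhibitors; some compounds called inactive have numbers as strong as hits; positive values seem to mean higher polarization but the record does not say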
# Vif TR-FRET = HIV-1 Vif–A3G interaction blockers – biochemical, TR-FRET, GST-Vif 1-94, biotin-A3G peptide, dose response retest, primary screen (AID 1117319) | 260,000 tested, 0.57% active | inhibition, %; hits with a dose series show IC50 in µM | TR-FRET GST-Vif / biotin-A3G peptide binding; higher % means a stronger effect; test concentration not given here; strong numbers were not always called active;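 active means above the screen mean plus three standard deviations and confirmed in dose response; inconclusive means results disagree or hit not tested in dose response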;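 further: Vif residues 1-94 fused to GST binding biotinylated APOBEC3G peptide 110-148; 0% = full assay without inhibitor and 100% = GST in place of GST-Vif; retest series ran down from 100 µM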
# ALR H2O2 inh = human ALR oxidase inhibition via reduced H2O2; P55789; AID 485317; 290,000 tested, 3.8% active; inhibition, % (test concentration not listed); purified ALR, DTT oxidation, H2O2 HRP-luminol luminescence;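 active means mean and each replicate at 75% or more; inconclusive means only one of the two met; inactive means neither met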;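 further: stock transfer was 7.5 nL into about 7.5 µL; 0% = neutral wells and 100% = wells with inactivated enzyme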
# Target sequence (P55789 whole entry, looked up): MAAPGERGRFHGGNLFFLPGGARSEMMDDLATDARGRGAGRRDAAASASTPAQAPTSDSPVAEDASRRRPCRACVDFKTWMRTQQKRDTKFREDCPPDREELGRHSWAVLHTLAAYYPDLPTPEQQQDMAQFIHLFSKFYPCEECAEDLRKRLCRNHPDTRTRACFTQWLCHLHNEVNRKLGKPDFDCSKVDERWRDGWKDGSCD
# Ecoli rRNA inh OD600 = recorded beside Ecoli rRNA inh, whose call it bears; OD600 change, %; measured here: OD600 growth;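 optical density of the mix in the first replicate; 0 = DMSO median and -100 = no signal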
# Ecoli rRNA inh RFP = also measured in Ecoli rRNA inh; calls as there; RFP signal change, %; measured here: RFP humanized mutant strains;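 first replicate; 0 = DMSO median and -100 = no signal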
# * marks the source's active call; other numbers are inactive results; i = inactive; ? = inconclusive; . = not tested or not shown. Only part of the results is shown; the hit share may differ from the screen's.
# The opening four compounds, to show the layout:
Ecoli rRNA inh RFP	FGF22 binding	Ecoli rRNA inh OD600	Ecoli rRNA inh	MLL AF4-AF9 inh	E coli growth	Vif TR-FRET	HNF4A DNA FP	ALR H2O2 inh	structure
-1.1	i	7	-1	-15	.	.	.	.	C[C@@H](NC(=O)C[C@@H]1C=C[C@@H](NS(=O)(=O)c2cccc(F)c2)[C@@H](CO)O1)c1ccccc1
-1.5	i	1	1	1.4	.	.	.	.	COc1ccccc1NC(=O)Nc1ccc2c(c1)C(=O)N(C)C[C@H](OC)[C@@H](C)CN(C)[C@@H](C)CO2
-2.5	i	5	-1	0.4	.	.	1.2	.	Cc1ccc(S(=O)(=O)Nc2ccccc2C(C(=O)OC(C)(C)C)C(=O)OC(C)(C)C)cc1
1.0	i	7	-1	-0.7	.	.	.	.	Cc1noc(C)c1NC(=O)N[C@H]1C=C[C@@H](CC(=O)Nc2ccc(-c3ccccc3)cc2)O[C@@H]1CO

# The whole of this part, previewed entries included:
Ecoli rRNA inh RFP	FGF22 binding	Ecoli rRNA inh OD600	Ecoli rRNA inh	MLL AF4-AF9 inh	E coli growth	Vif TR-FRET	HNF4A DNA FP	ALR H2O2 inh	structure
-1.1	i	7	-1	-15	.	.	.	.	C[C@@H](NC(=O)C[C@@H]1C=C[C@@H](NS(=O)(=O)c2cccc(F)c2)[C@@H](CO)O1)c1ccccc1
-1.5	i	1	1	1.4	.	.	.	.	COc1ccccc1NC(=O)Nc1ccc2c(c1)C(=O)N(C)C[C@H](OC)[C@@H](C)CN(C)[C@@H](C)CO2
-2.5	i	5	-1	0.4	.	.	1.2	.	Cc1ccc(S(=O)(=O)Nc2ccccc2C(C(=O)OC(C)(C)C)C(=O)OC(C)(C)C)cc1
1.0	i	7	-1	-0.7	.	.	.	.	Cc1noc(C)c1NC(=O)N[C@H]1C=C[C@@H](CC(=O)Nc2ccc(-c3ccccc3)cc2)O[C@@H]1CO
4.5	i	3	8	-0.9	0.7	.	-0.3	-25	CCC1CN(C(=O)N2CCC(C(=O)NCc3cc(OC)c(OC)c(OC)c3)CC2)c2ccccc2O1 (centres undefined)
1.6	i	1	3	-1.0	0.73	?	-0.7	-5	O=C(CCC1CCN(C(=O)c2ccccc2Cl)CC1)NCc1ccc(F)cc1
1.3	.	7	16	-1.4	0.67	8%	-1.3	1	CCn1c(SCC(=O)N2CCOCC2)nc2ccccc21
-0.1	i	-2	-2	3.1	0.69	-3%	-0.5	99*	CCc1ccc(NC(=O)CSc2nc(=O)n(CCN(C)C)c3c2CCCC3)cc1
-0.2	i	13	0	-1.9	0.66	-5%	-2.3	.	Cc1cc(=O)c(C(=O)O)nn1-c1cccc(C(F)(F)F)c1
1.3	i	8	1	1.5	.	.	.	.	C[C@H](CO)N1C[C@H](C)[C@@H](CN(C)C(=O)Nc2ccc(F)cc2)Oc2c(NC(=O)C3CC3)cccc2C1=O
.	.	.	.	.	0.74	1%	0.6	-20	CS(=O)(=O)N(CC(=O)Nc1ccc(F)cc1F)c1cccc([N+](=O)[O-])c1
.	.	.	.	.	0.69	.	-0.4	-4	CCC1CCC2(CC1)NC(=O)N(CC(=O)Nc1cc(C)on1)C2=O (centres undefined)
3.1	i	12	19	-0.7	0.62	.	0.8	9	CCSC(=Nc1ccccc1)N1CCOCC1
0.9	i	-5	-3	7.6	0.65	-7%	-2.2	44	CC[C@H](C)[C@H](NC(=O)OCc1ccccc1)C(=O)OCC(=O)Nc1ccc(N2CCOCC2)cc1
6.1	i	-11	-1	10	0.71	0%	3.4	.	Cc1ccc(N2C(=O)c3ccccc3C2Nc2ccc(S(=O)(=O)N3CCOCC3)cc2)nc1 (centres undefined)
.	.	.	.	.	0.69	11%	-0.8	-5	CC(C)n1c(SCC(=O)Nc2nc3ccccc3s2)nc2c1c(=O)n(C)c(=O)n2C
4.0	i	16	21	-2.0	0.71	-3%	0.8	-3	CCOC(=O)CC(=O)Nc1ccsc1C(N)=O
.	.	.	.	.	0.74	-7%	0.2	?	COc1ccccc1-c1cn[nH]c(=S)n1
-2.0	i	-6	-4	-3.7	0.72	.	1.0	-28	Cc1cc(C)nc(SC(C)CNS(=O)(=O)c2ccccc2)n1 (centres undefined)
.	.	.	.	.	0.72	.	2.6	0	Cc1cccc(NC(=O)CSc2nc3nc4c(cc3c(=O)n2-c2ccccc2)CCCC4)c1
-0.5	i	14	3	-1.4	0.69	.	0.3	98*	COc1ccc(NC2CCCN(C(=O)CCN3CCCC3=O)C2)cc1 (centres undefined)
-3.3	i	13	3	-5.7	.	.	.	.	O=C(Nc1ccccc1)N1C[C@H]2[C@@H](c3ccccc31)[C@@H](CO)N2C(=O)c1ccccn1
-1.9	i	10	22	-1.9	0.68	4%	0.0	-9	CC(=O)Nc1ccc(S(=O)(=O)NC2(C(F)(F)F)NC(=O)N(c3ccccc3F)C2=O)cc1 (centres undefined)
.	.	.	.	.	0.64	-2%	2.7	-3	Cc1nn(-c2ccccc2)c(C)c1C(=O)NCc1ccc(F)cc1
-2.8	.	3	0	-10	0.69	6%	-1.4	-4	COc1ccc(CC(=O)OCC(=O)N(C)C2CCS(=O)(=O)C2)cc1OC (centres undefined)
0.4	i	3	5	5.1	0.73	-2%	3.2	1	CC1CCN(C(=O)COC(=O)Cn2cnc3ccccc32)CC1
1.4	i	3	9	0.8	0.71	8%	-0.1	98*	CCOc1ccc(NC(=O)CSc2nc3c(c(=O)n2C)SC(C)C3)cc1 (centres undefined)
3.0	i	6	10	-5.4	.	3%	-0.1	-4	CCOC(=O)CC(=O)NC(C)(C)CCCCC(C)(C)NC(=O)CC(=O)OCC
-1.9	i	-4	-2	-1.2	0.7	2%	3.2	-5	CCCCn1c(SC(C)C(=O)NCC2CCCO2)nc2cc(C(=O)OC)ccc2c1=O (centres undefined)
0.7	i	22	26	-0.8	0.69	6%	-1.8	-4	CCN(CCn1cccn1)C(=O)CC1C(=O)NCCN1Cc1ccc(F)cc1 (centres undefined)
-2.8	i	9	0	-0.3	.	.	-0.9	.	O=C(Nc1nnc([C@H]2C[C@H](O)[C@@H](CO)O2)s1)Nc1ccc(F)cc1F
-1.1	i	13	1	-1.8	0.67	6%	-2.3	-6	CC(=O)Nc1nnc(Cc2c[nH]c3ccccc23)s1
-1.4	i	-6	0	-4.0	.	.	-3.6	.	COCC(=O)N(C)[C@H]1C[C@H]2c3cc(Oc4ccccc4C)ccc3CCN2C(=O)[C@H]1[C@H](C)O
.	i	.	.	-3.8	0.79	.	1.0	-17	C[C@@H](C(=O)NCc1c(F)cccc1Cl)N1C(=O)N2CCc3c([nH]c4ccccc34)[C@@]2(C)C1=O
-1.1	i	3	6	1.9	0.6	3%	2.5	-5	NC(=O)c1ccc(-n2nnnc2Oc2ccccc2)cc1
-2.0	i	2	2	1.4	0.69	7%	2.8	-6	CC(=O)c1ccc(NC(=O)CSc2nc(N)c3cc4c(nc3n2)CCCC4)cc1
.	.	.	.	.	0.71	-9%	4.5	5	Cc1cc(C)c(NC(=O)C2CCN(c3cnccn3)CC2)c(C)c1
-0.5	i	10	9	0.6	0.63	8%	0.7	-9	COc1cc2nc(CSc3ncn[nH]3)[nH]c(=O)c2cc1OC
.	.	.	.	.	0.64	11µM*	3.3	-1	CN1CCC(N(C)C(=O)COc2ccccc2-c2ccccc2)CC1
5.8	i	5	2	2.4	0.71	-1%	5.5	-4	COc1cc([N+](=O)[O-])ccc1NC(=O)N1CCCCCC1
-11	i	-11	-9	0.3	.	.	0.4	-1	CC(=O)C[C@@H](O)CC(=O)[C@@H]1OC(=O)CCCCCCc2ccccc21
5.8	i	-2	-3	-5.8	.	.	.	.	C[C@@H]1CN([C@@H](C)CO)S(=O)(=O)c2ccc(C#CCC3CCCC3)cc2O[C@H]1CN(C)Cc1ccc(C(=O)O)cc1
5.7	i	10	2	-5.5	0.6	-3%	-0.1	.	COc1ccc(C(=O)NCCNC(=O)c2ccc(C)nc2)cc1
21	i	-37	-24	10	0.67	6%	-3.2	31	O=C1[C@@H]2Cc3c([nH]c4ccccc34)C(c3ccccc3)N2C(=O)CN1C1CCN(Cc2ccccc2)CC1 (some centres undefined)
.	.	.	.	.	0.72	-5%	0.7	.	COC(=O)CCN(C(=O)c1ccc(OC(C)=O)cc1)c1ccccn1
-0.4	i	16	2	-0.5	.	.	.	.	C[C@H](NC(=O)C[C@@H]1C[C@H]2c3cc(NC(=O)CN(C)C)ccc3O[C@H]2[C@@H](CO)O1)c1ccccc1
1.2	i	5	0	0.4	0.73	-3%	-1.4	.	CN(C)CCN(C(=O)C1=COCCO1)c1nc2ccc(F)cc2s1
0.1	i	2	24	-1.2	.	6.2µM*	-32	-39	Cc1ccc(C(=O)N/N=C\c2cc(Br)c(Br)o2)cn1
-1.8	i	-13	1	.	0.66	.	4.4	-14	Nc1ccc(O)c([N+](=O)[O-])c1
.	.	.	.	.	0.63	0%	-2.0	-1	COc1ccc(-c2nnc(N3CCC(C)CC3)c3ccccc23)cc1
-1.3	i	10	3	-1.1	0.69	5%	6.2	.	COc1ccc(C(=O)OCC(=O)NCC2CCCCC2)cc1F
.	.	.	.	.	0.75	16%	6.0	97*	Cc1ccccc1Nc1nc(CSc2nnc(-c3ccoc3C)n2C)cs1
.	.	.	.	.	0.73	-11%	2.3	0	O=S(=O)(c1ccc(N2CCN(S(=O)(=O)c3ccc4c(c3)OCCO4)CC2)nc1)N1CCCC1
24	i	-36	-9	8.9	.	.	.	.	C[C@H]1CN([C@@H](C)CO)S(=O)(=O)c2ccc(C3=CCCCC3)cc2O[C@@H]1CN(C)C(=O)c1ccc(F)cc1
3.9	i	3	14	-2.1	.	.	.	.	OCC[C@@H]1C[C@H](O)[C@@H](O)[C@@]2(OCCc3cc(C(F)(F)F)ccc32)O1
.	.	.	.	.	0.7	13%	-1.0	99*	O=C(NCC(c1cccnc1)N1CCN(c2ccccc2)CC1)c1ccc2c(c1)OCO2 (centres undefined)
.	.	.	.	.	0.71	2%	-3.6	-1	Cc1ccc(C(NC(=O)N2CCOCC2)=C(Cl)Cl)cc1F
-1.3	i	-22	-7	-1.1	.	.	.	.	C[C@H]1CN([C@@H](C)CO)S(=O)(=O)c2ccc(Br)cc2O[C@@H]1CN(C)Cc1ccccn1
-9.8	i	-46	-39	-2.5	0.66	.	-1.4	-7	CC(C)c1ccccc1OCC(=O)N1CCCCCCC1
.	.	.	.	.	0.66	2%	0.8	16	COc1cc(C2C3C(=O)N(c4ccc(F)cc4)C(=O)C3ON2c2ccccc2)ccc1O (centres undefined)

# (more compounds)
Ecoli rRNA inh RFP	FGF22 binding	Ecoli rRNA inh OD600	Ecoli rRNA inh	MLL AF4-AF9 inh	E coli growth	Vif TR-FRET	HNF4A DNA FP	ALR H2O2 inh	structure
-1.7	i	5	8	-0.6	.	27%	-4.2	-15	Fc1ccccc1/C=N/NC(=S)Nc1ccc(Cl)cc1Cl
.	.	.	.	.	0.73	0%	1.6	.	Cc1c(NC(=O)C2CCCN2S(=O)(=O)c2ccccc2)c(=O)n(-c2ccccc2)n1C (centres undefined)
.	.	.	.	.	0.71	2%	-0.9	-34	COCCCNC(=O)c1ccc(Cn2c(=O)c3ccccc3n(Cc3ccccc3C)c2=O)cc1
4.4	i	-17	-19	17	0.67	-3%	4.9	-9	COc1ccc(C(CNC(=O)c2ccc(-c3nc4ccccc4s3)o2)N2CCCC2)cc1 (centres undefined)
.	i	.	.	3.2	0.7	-8%	-3.7	.	CCN(CC)C(=O)[C@H]1C[C@H](CC(=O)NCCCN(C)C)C(=O)N2CCc3c([nH]c4cc(CCC(=O)N(C)C)ccc34)[C@]12C

# Screening data (PubChem)
